VDR inhibitor: vitamin D3 receptor (human) inhibition. Potency, µM, for inactives: max response, negative = inhibition, most hits filed as inhibitors. actives 0.93% (n = 400,000). P11473. VDR-SRC2-3 peptide fluorescence polarization, 2 h; active = well fitted inhibition curve with a large enough effect; inconclusive = small, poorly fitted or top-dose-only effect, or another doubt; inactive = no such curve, though single readings can be large or run the other way; also: series mostly up to about 120 µM
Target sequence (P11473 whole entry, looked up): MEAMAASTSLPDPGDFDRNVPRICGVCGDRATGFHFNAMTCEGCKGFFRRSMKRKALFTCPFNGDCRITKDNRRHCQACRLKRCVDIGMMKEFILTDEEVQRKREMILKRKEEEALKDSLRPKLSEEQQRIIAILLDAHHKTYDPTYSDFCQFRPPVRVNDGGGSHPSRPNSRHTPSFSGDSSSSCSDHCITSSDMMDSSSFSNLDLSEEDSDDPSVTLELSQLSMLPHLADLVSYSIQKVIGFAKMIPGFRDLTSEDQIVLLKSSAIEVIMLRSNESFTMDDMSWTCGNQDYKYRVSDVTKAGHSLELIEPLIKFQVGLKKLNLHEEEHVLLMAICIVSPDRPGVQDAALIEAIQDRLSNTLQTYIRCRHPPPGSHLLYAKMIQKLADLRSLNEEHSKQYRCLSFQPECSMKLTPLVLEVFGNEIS
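Reagent solutions, kept cold and dark, are dispensed first; compounds are then pinned in at 23 nl, plates briefly spun, and incubated 2 h at ambient temperature. Inhibition of VDR–SRC2-3 peptide binding is read by fluorescence polarization.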
Numbers without * were called inactive; ? = inconclusive; & = joins results of further samples. % is scaled to controls: 0 for no effect and ±100 for the full control effect; potency is read from the fitted curve at half-maximal effect. A portion of the library; count on the stated rates, not on these rows.

nr	molecule	VDR inhibitor
1	CN1CC(=O)N2C(c3cccc([N+](=O)[O-])c3)c3[nH]c4ccccc4c3C[C@H]2C1=O (some centres undefined)	12.8%
2	CCOP(=O)(c1ccc(N(C)C)cc1)C(O)c1cccnc1 (centres undefined)	10.9%
3	O=C(O)CCCCCNC(=O)c1cccc(Br)c1	9.1%
4	O=C1C=C(N2CCN(C(=O)c3ccccc3)CC2)C2(CCCCC2)O1	3.9%
5	CC(=O)N=c1c(C#N)cc2c(=O)n3ccccc3nc2n1Cc1ccccc1	-13.4%
6	Cc1ccc(S(=O)(=O)N(CC(=O)NC2CCCCCC2)c2ccccc2F)cc1	-6.2%
7	Cc1c(Cl)cccc1NC(=S)Nc1ccccn1	-8.6%
8	CN(C)CCN=Cc1c(O)n(Cc2ccc3c(c2)OCO3)c(=O)c2ccccc12	-14.9%
9	COc1ccc(Nc2c(-c3ccc(N4CCOCC4)cc3)nc3ncccn23)cc1OC	5.2%
10	O=S(=O)(Nc1ccc(N2CCOCC2)cc1)c1ccccc1	3.9%
11	O=C(OCC(=O)N1c2ccccc2Sc2ccccc21)c1cccnc1	-6.6%
12	Cc1ccc(Cn2c(CCCNC(=O)C3CCCCC3)nc3ccccc32)cc1	6.8%
13	O=C(CSc1nnc(CNC(=O)c2c(F)cccc2F)o1)NCc1ccccc1Cl	4.2%
14	O=C(O)C1Cc2ccccc2CN1S(=O)(=O)c1ccc(Cl)cc1 (centres undefined)	-11.7%
15	COc1ccc(CNC(=O)C(c2cccs2)N(Cc2ccco2)C(=O)Cc2cccs2)cc1 (centres undefined)	-7.8%
16	Cc1nc(CNC(=O)c2ccccc2OC2CCN(S(C)(=O)=O)CC2)cs1	-4.5%
17	Cc1ccc(CNC(=O)CN2C(=O)COc3ccc(S(=O)(=O)N4CCC(C)CC4)cc32)o1	-17.2%
18	COC(=O)CC1COc2ccccc2N1C(=O)c1ccc(C(C)(C)C)cc1 (centres undefined)	1.3%
19	Cc1cccc(C)c1NC(=O)C1CCN(C(=O)c2cccs2)CC1	12.1%
20	COCCNC(=O)CCCn1c(SCC(=O)NCc2ccc(C)cc2)nc2c(sc3ccccc32)c1=O	-11.0%

nr	molecule	VDR inhibitor
21	CCC(=O)N1CCc2cc(CNS(=O)(=O)c3ccc(NC(=O)CC(C)C)cc3)ccc21	11.3%
22	CC1CCN(S(=O)(=O)c2nnc(NC(=O)c3cccc(Cl)c3)s2)CC1	3.6%&15.2%
23	Cn1c(N)c(C(=O)CSc2nn(-c3ccc(F)cc3)c(=S)s2)c(=O)n(C)c1=O	25.3%
24	CCSc1nc2ccccc2n1C(=O)/C=C/c1ccc(OC)c(OC)c1	?
25	COc1cccc(C2/C(=C(\O)c3ccc(OC)c(OC)c3)C(=O)C(=O)N2c2cc(C)on2)c1 (centres undefined)	6.0%
26	C=CCNc1nc(NCCO)nc(N2CCCC2)n1	?
27	CSc1nsc(SCC(=O)Nc2ccc3c(c2)OCCO3)n1	-5.5%
28	Cc1ccnc2nc(C(=O)NCc3cccs3)nn12	2.2%
29	NCCNCCN	15.8µM*
30	Cc1nc(C)n(CC(=O)N2CCCC(C(=O)c3ccc(C(F)(F)F)cc3)C2)n1 (centres undefined)	-2.8%
31	Cc1ccc(N=CC=C2OC(C)(C)C(C)(C)O2)c(C)c1	-9.2%
32	C/C(=N/NC(=O)CN1CCN(S(=O)(=O)c2ccc(Br)cc2)CC1)c1ccncc1	-4.2%
33	COc1ccc(Cl)cc1N(CC(=O)NCC(C)C)S(=O)(=O)c1ccc(C)c([N+](=O)[O-])c1	-10.2%
34	Cc1ccc(C)c(OCC(=O)NCC2COc3ccccc3O2)c1 (centres undefined)	13.0%
35	O=C(O)CCCN1C(=O)C2C3CC(C2C1=O)C1C(c2ccccc2)c2sc(=O)[nH]c2SC31 (centres undefined)	-15.0%
36	CCC(=O)NCCN1CCN(C(=O)CC)CC1	8.4%
37	C/C(=N\NC(N)=O)c1ccccc1	-5.6%
38	CCOC(=O)c1c(S(=O)(=O)NCC(=O)N2CCN(c3cc(C)ccc3C)CC2)c(C)n(C)c1C	-8.4%
39	Cc1ccc(/C=C(\NC(=O)c2ccccc2)C(=O)OCc2ccccc2)cc1	7.0%
40	O=C(Cc1ccccc1)Nc1nccs1	-12.8%

Reprinted from the part before: six entries; new compounds follow.
nr	molecule	VDR inhibitor
35	O=C(O)CCCN1C(=O)C2C3CC(C2C1=O)C1C(c2ccccc2)c2sc(=O)[nH]c2SC31 (centres undefined)	-15.0%
36	CCC(=O)NCCN1CCN(C(=O)CC)CC1	8.4%
37	C/C(=N\NC(N)=O)c1ccccc1	-5.6%
38	CCOC(=O)c1c(S(=O)(=O)NCC(=O)N2CCN(c3cc(C)ccc3C)CC2)c(C)n(C)c1C	-8.4%
39	Cc1ccc(/C=C(\NC(=O)c2ccccc2)C(=O)OCc2ccccc2)cc1	7.0%
40	O=C(Cc1ccccc1)Nc1nccs1	-12.8%
41	O=C(Cn1cc([N+](=O)[O-])ccc1=O)NC1CCCCC1	-2.2%
42	Cn1c2c(c(=O)n(C)c1=O)C(c1cccc([N+](=O)[O-])c1)Nc1ccccc1O2 (centres undefined)	9.7%
43	COC(=O)c1[nH]c2ccc(F)cc2c1NS(=O)(=O)c1ccc(OC)cc1	-0.4%
44	CCc1ccc(C2C(C#N)=C(N)SC(N)=C2C#N)cc1	?
45	COC1CCCN(C(=O)c2ccc(OC3CCN(CCc4ccccc4)CC3)cc2)C1 (centres undefined)	5.3%
46	Cc1cccc(NCc2nnc3n2CCCCC3)c1C	15.2%
47	CCCn1cc(CN2CCC(n3nccc3NC(=O)CCOc3ccccc3)CC2)c(C)n1	-2.0%
48	O=C(O)CCNC(=S)Nc1cccc(F)c1	9.2%
49	COc1cccc(N2C(=O)N(Cc3ccc(C#N)cc3)c3ccccc3S2(=O)=O)c1	6.2%
50	CC(C)(C)CN1CCC(n2nccc2NC(=O)c2ccccc2Cl)CC1	-7.1%
51	COCCNC(C(=O)Nc1cc(Cl)cc(Cl)c1)c1ccccc1 (centres undefined)	5.7%
52	COc1ccc(OCCSc2nnc(CC(=O)Nc3cccc(Cl)c3Cl)n2C)cc1	-1.1%
53	COc1ccc(CCNC(=O)C(NC(=O)OCc2ccccc2)C(C)C)cc1OC (centres undefined)	0.7%
54	COC(=O)c1ccc(COC(=O)CNC(=O)c2ccc(-c3ccccc3)cc2)cc1	23.8%
55	CC1(c2ccccc2)NC(=O)N(CC(=O)Nc2cc3c(cc2Br)OCCO3)C1=O (centres undefined)	-12.4%
56	CC(C)(C)NC(=O)C(c1ccc(-c2ccccc2)cc1)N(C[C@H]1CC[C@@H]([C@@H]2CC[C@H](CO)O2)O1)C(=O)c1cccc(Cl)c1 (some centres undefined)	6.3%
57	CC1CCc2nc3ccc(S(=O)(=O)N4CCC(C(=O)NCc5ccccc5Cl)CC4)cc3c(C(=O)O)c2C1 (centres undefined)	11.2%&-2.5%
58	COc1ccc(S(=O)(=O)N2CCSC2C)cc1C (centres undefined)	-11.4%
59	O=C(O)C1CC=CCC1C(=O)NCc1ccccc1 (centres undefined)	-7.4%
60	CCN(CC)CCOC(=O)c1ccc(N/C=C(/C#N)c2nc(-c3ccc(OC)c(OC)c3)cs2)cc1	-0.6%

nr	molecule	VDR inhibitor
61	O=c1[nH]c(=S)n(-c2cccc(C(F)(F)F)c2)c(O)c1C=NCCN1CCNCC1	5.6%
62	COc1cc(COCC(O)CN2CCN(Cc3ccccc3)CC2)cc(OC)c1OC (centres undefined)	-9.2%
63	CS(=O)(=O)N(CC(=O)NCc1ccccc1Cl)C1CCCCC1	-18.2%
64	COc1c(CC=C(C)C)cc(C2CC(=O)c3c(O)cc(O)cc3O2)c(CC=C(C)C)c1O (centres undefined)	0.2%
65	Cc1ccc(NC(=O)CSc2nnc(Cc3cccn3C)n2-c2ccc(F)cc2)c(C)c1	-6.0%
66	Oc1ccccc1-c1ccn[nH]1	-17.6%
67	CCc1ccc(NC(=O)CSc2nnc(-c3ccccn3)n2C)cc1	3.8%
68	Cc1nnc(NC(=O)CSc2nc3c(c(=O)n2C)SC(C)C3)s1 (centres undefined)	1.6%
69	O=C(c1cccc(C(F)(F)F)c1)N1CCN(C2CCCCC2)CC1	9.5%
70	COc1cccc(/C=C2\Sc3ccc(C(=O)NCc4cccnc4)cc3N(C)C2=O)c1	-5.2%
71	O=C(CCc1ccccc1)Nc1nnc(-c2cccs2)o1	-12.1%
72	CC(C)c1ccccc1NC(=O)COC(=O)CNC(=O)c1ccc(Br)cc1	0.2%
73	COc1cccc(/C=N/NC(=O)c2cccc([N+](=O)[O-])c2)c1OS(=O)(=O)c1ccccc1	19.2%
74	COc1ccc(/C=C/C(=O)NCCCN2CCCCCC2)cc1	5.5%
75	c1ccc(-n2nnnc2CN2CCOCC2)cc1	16.5%
76	CC(=O)SC1CC(=O)N(c2c(C)cccc2C)C1=O (centres undefined)	-17.0%
77	O=C(CC1NCCc2ccccc21)Nc1ccccc1Cl (centres undefined)	-3.8%
78	CCOC(=O)C1(Cc2ccccc2)CCN(Cc2cccn2-c2cccnc2)CC1	0.5%
79	CC(C)[C@H](NC(=O)C1CCN(S(=O)(=O)c2ccccc2)CC1)C(=O)NCc1ccc(F)cc1	-18.3%
80	CCOc1ccc(N2C(=O)CC(N(O)c3ccccc3)C2=O)cc1 (centres undefined)	-17.3%

nr	molecule	VDR inhibitor
81	CC(=O)NCC(=O)NC1CCCc2c1cnn2-c1ccc(C(C)(C)C)cc1 (centres undefined)	-7.7%
82	CCN1C(=O)C2C(c3cccc(F)c3)NC(C)(C(=O)OC)C2C1=O (centres undefined)	11.6%
83	Cn1c(=O)[nH]c(=O)c2c1nc(CN1CCN(c3ccccc3)CC1)n2Cc1c(F)cccc1Cl	1.1%
84	O=C(COC(=O)c1cccc(S(=O)(=O)N2CCOCC2)c1)c1ccccc1	6.7%
85	CCOC(=O)C1CCN(C(=O)C2CCN(c3nnc(-n4cccc4)s3)CC2)CC1	19.8%
86	O=c1c2ccccc2nc(/C=C/c2ccc3c(c2)OCO3)n1CCCO	2.3%
87	CCNC(=O)N(CC)C[C@H]1N[C@@](Cc2ccccc2)(C(=O)OC)[C@H]2C(=O)N(C)C(=O)[C@@H]12	-12.5%
88	Cn1c(/C=N/NC(=O)c2ccccc2Br)nc2ccccc21	11.2%
89	N=C1C(c2ccccc2)=C(O)CN1c1cccc(S(=O)(=O)N2CCCCC2)c1	-9.2%
90	O=C1C2C3C=CC(C4CC34)C2C(=O)N1/N=C/c1ccc([N+](=O)[O-])o1 (centres undefined)	-0.5%
91	CCOC(=O)c1ccc(N(C(=O)CNC(=O)c2ccco2)C(C(=O)NCC2CCCO2)c2ccc(OC)c(OC)c2)cc1 (centres undefined)	6.5%
92	CCOC(=O)C1CCN(CCC(=O)Nc2ccc(F)cc2)CC1	11.7%
93	COc1ccc(-n2ccnc2SCC(=O)Nc2ccc3c(c2)OCO3)cc1	0.9%
94	CC(=O)N1CCN=C1SCc1ccc(C)cc1	-5.3%
95	COc1ccc(OCC(=O)N(Cc2cccc(OC)c2)C2CCS(=O)(=O)C2)cc1 (centres undefined)	4.0%
96	CCc1cccc(C)c1NS(=O)(=O)c1cc(-c2cc(C)no2)ccc1C	14.5%
97	O=C(O)CNS(=O)(=O)c1c(Cl)cccc1Cl	5.2%
98	Cc1ccc(NC(=O)CCc2nnc(SCC(=O)Nc3ccccc3C)n2C)cc1Cl	-27.7%
99	CC(=O)c1cc(F)c(N2CCN(C(=O)COc3ccc(F)cc3)CC2)cc1C	-5.8%
100	CCOC(=O)c1cccc(NC(=O)c2cc3sccc3n2Cc2ccc(Cl)cc2)c1	-6.5%

nr	molecule	VDR inhibitor
101	C=CCn1c(OCc2ccccc2)n[nH]c1=S	-9.0%
102	CCOc1ccc(NC(=O)c2c(Nc3ccc(OC)cc3OC)sc(C(=O)c3ccc(Cl)cc3)c2N)cc1	10.1%
103	CN(C)c1ccc(-c2nc3ccc(Cl)cn3c2Nc2ccc3c(c2)OCCO3)cc1	-1.6%
104	Cc1ccc2c(c1)N(C(=O)CCC(=O)N1CCOCC1)CCO2	-8.0%
105	COc1cccc(-c2cc(C(=O)NN3CCOCC3)c3ccccc3n2)c1	12.1%
106	O=C(COC(=O)Cc1ccc(Br)cc1)NCC1CCCCC1	1.7%
107	Cn1c(=O)[nH]c(=O)c2c1nc(N1CCCCC1)n2CC(O)CN1CCCCC1 (centres undefined)	-0.4%
108	COc1ccc2nc(C3CCCCC3)nc(C3CCCCC3)c2c1	-3.7%
109	CCC1(CC)NC(=O)N(CC(=O)OCC(=O)Nc2ncc(Cl)cc2Cl)C1=O	-15.3%
110	COc1ccc(C)cc1NC(=O)C(c1ccccc1)N1CCN(CC(=O)N2CCOCC2)CC1 (centres undefined)	-8.6%
111	Cc1cc(C)c(C(=O)c2ccc(C(=O)N(C(C)C)C(C)C)cc2)c(C)c1	-13.8%
112	COC(=O)c1ccc(S(=O)(=O)NCc2ccccc2)n1C	6.9%
113	CC1CCCC(C)N1C(=O)COC(=O)CCC(=O)c1cccs1 (centres undefined)	-4.6%
114	Cc1ccc(NC(=O)C2CCN(C(=O)c3cccs3)CC2)cc1	9.9%
115	CC(=O)c1cc(C#N)c(N2CC(C)OC(C)C2)nc1C (centres undefined)	6.8%
116	Cc1nc(SCC(N)=O)c(C#N)c(C)c1C	10.0%
117	S=C(NCCN1CCOCC1)Nc1ccc(Nc2ccccc2)cc1	7.5%
118	O=c1c2c(-c3ccccc3)csc2ncn1/N=C/c1c2ccccc2cc2ccccc12	1.8%
119	CCCc1c(O)nc(SCc2ccccc2)[nH]c1=O	-8.8%
120	Cc1cccc(NC(=O)CSC(N)=O)c1C	?
121	CC(c1ccccc1)N1C(=O)/C(=C/c2ccncc2)SC1=S (centres undefined)	44.7µM*
122	CC(C)CCNC(=O)CN1C(=O)NC(c2ccccc2)(c2ccccc2)C1=O	-5.6%
123	COc1ccc(CCNC(=S)NC(=O)c2cccc(Cl)c2)cc1OC	-28.6%
